Compound activity from PubChem.
VACV Venus inh = inhibitors of vaccinia virus (Venus reporter) | Vaccinia virus Venus reporter expression, fluorescence | Potency, µM (series often up to 36.5 µM), inactives show top-dose activity change, negative = inhibition, most hits filed as inhibitors | 330,000 compounds, 0.46% hits | AID 720580; active means well fitted inhibition curve with a large enough effect; inconclusive means small, poorly fitted or top-dose-only effect; inactive means no such curve, though single readings can be large or run the other way; tested in A549 cells; note: nearly all actives have a fitted effect of over 30% in size; inactives centre near -10
Vaccinia mCherry = inhibitors of vaccinia virus infection (mCherry reporter signal). AID 720579. 310,000 compounds, 0.63% hits. Vaccinia virus mCherry reporter infection, fluorescence; about a quarter of the inactives have no number. Potency, µM (top dose mostly 36.5 µM), inactives show at the top dose activity change, negative = inhibition, hits mostly inhibitors; active = well fitted inhibition curve with a large enough effect; inconclusive = small, poorly fitted or top-dose-only effect; inactive = no such curve, though single readings can be large or run the other way; tested in A549 cells; note: nearly all actives have a fitted effect of over 35% in size; inactives centre near -10
Numbers without * were called inactive; i = inactive; u = inconclusive; x = no result given; [ ] = another dose, or the depositor's remark. % is set by controls: 0 for no effect and ±100 for the full control effect; potency is the fitted concentration of half-maximal effect. Random draw from the library; any-hit rate near 0.88%.

SMILES	VACV Venus inh	Vaccinia mCherry
Cc1c(NC(=O)c2cc(-c3cccc(O)c3)on2)c(=O)n(-c2ccccc2)n1C	-5.4%	-0.2%
Cc1ccc(C(=O)NC(=C(Cl)Cl)S(=O)(=O)c2ccc(C)cc2)cc1	u	u
CCN(CCCNC(=O)CCC(=O)N1CCOc2ccccc21)Cc1ccccc1	-13.3%	u
CN1C(=C2C(=O)OC(C)(C)OC2=O)Sc2ccccc21	-5.2%	-19.8%
COCCN(C(=O)CSc1n[nH]c(-c2ccccc2)n1)c1c(N)n(CC(C)C)c(=O)[nH]c1=O	-17.1%	-12.8%
CCCCn1cc(S(=O)(=O)c2cc(C)ccc2C)c(=O)c2cc(F)c(N3CCC(C)CC3)cc21	-7.0%	-12.0%
COC(=O)Cc1c(C(=O)OC)nnn1-c1ccc(OC(F)(F)F)cc1	-16.3%	-3.4%
COc1ccc(NC(=S)NC(NC(=O)c2cccc3ccccc23)C(Cl)(Cl)Cl)c([N+](=O)[O-])c1 (stereo not drawn)	-20.9%	-20.1%
COc1cc(Cl)c(C)cc1NC(=O)c1cc2c(=O)oc3ccccc3c2s1	1.4%	0.9%
CCOC(=O)N1CCN(Cc2nc(-c3ccc(C)cc3)no2)CC1	-13.0%	-13.5%
COc1ccc(OC)c(CN2C(=O)CN(S(C)(=O)=O)CC2(C)C(=O)NCc2ccccc2)c1 (stereo not drawn)	-8.7%	-14.4%
O=C(O)c1ccccc1NC(c1ccccc1)c1ccc2cccnc2c1O (stereo not drawn)	u	8.91µM*
O=C1NCC(COc2ccc(Cl)cc2)O1 (stereo not drawn)	-13.8%	-1.7%
CCOCCCNC(=O)CN1CCN(c2ccc(F)cc2)CC1	-9.7%	i
COc1c(Cl)cc(Cl)cc1C(=O)Nc1ccc(NC(=O)c2cccs2)cc1	-21.1%	i
CCC(=O)N1CCc2cc(CNC(=O)c3ccc(F)cc3)ccc21	-17.0%	-0.1%
CCOc1ccc2nc(SCC(=O)N3c4ccccc4Sc4ccccc43)sc2c1	-7.5%	-12.4%
CC1(C(=O)NS(=O)(=O)C2CC2)CCCN(C(=O)c2cccs2)C1 (stereo not drawn)	11.4%	36.6%[activator]
Cc1ccc(Nc2nc(NCc3ccco3)nc3nccnc23)cc1	-17.6%	-7.6%
N#Cc1c(-n2ncnc2-c2cccc(Cl)c2)sc2c1CCCCC2	-14.9%	-19.3%
COc1cc(/C=N/Nc2cccc(C)c2)cc(Br)c1O	-0.4%	-4.9%
CCN(CC)CCNC1=CC(=O)OC12CCCCC2	-14.4%	x
Cc1ccc(NC(=O)CN(C)C(=O)CCC(=O)N2CCOCC2)cc1	-5.4%	i
CSCCC(NS(=O)(=O)c1ccccc1F)C(=O)OCc1ccccc1Cl (stereo not drawn)	-8.3%	-1.9%
Cc1ccc(S(=O)(=O)N(CC(=O)NCc2ccncc2)Cc2ccc(F)cc2)cc1	2.6%	-6.7%

The closing 3 records of the section above come first, to join the parts.
SMILES	VACV Venus inh	Vaccinia mCherry
Cc1ccc(NC(=O)CN(C)C(=O)CCC(=O)N2CCOCC2)cc1	-5.4%	i
CSCCC(NS(=O)(=O)c1ccccc1F)C(=O)OCc1ccccc1Cl (stereo not drawn)	-8.3%	-1.9%
Cc1ccc(S(=O)(=O)N(CC(=O)NCc2ccncc2)Cc2ccc(F)cc2)cc1	2.6%	-6.7%
CCOC(=O)Cn1c(-c2ccccc2)ccc(C#N)c1=O	-2.4%	-6.5%
O=C(CN1C(=O)NC2(CCCCCC2)C1=O)NC1CCCCCCC1	0.0%	-3.7%
O=C(CCc1nnc2ccc(N3CCCCC3)nn12)NCC1CCN(Cc2ccc(F)cc2)CC1	-11.0%	-20.8%
N#Cc1ccccc1NC(=O)COC(=O)c1ccc(S(=O)(=O)N2CCCC2)cc1	-6.7%	x
Cc1cccc(N=NC(=S)NNc2cccc(C)c2)c1	-8.5%	-11.0%
CSc1ccc2c(c1)C(N1CCN(C)CC1)Cc1ccccc1S2 (stereo not drawn)	u	u
O=C(CO/N=C/c1ccc(OC(F)F)cc1)N1CCc2ccccc21	-10.7%	i
CC(=O)N1CCc2ccc(NC(=O)c3c(-c4c(Cl)cccc4Cl)noc3C)cc21	-11.2%	-11.3%
O=C(c1ccc(C(F)(F)F)cc1)C1CCCN(C(=O)CN2C(=O)CSC2=O)C1 (stereo not drawn)	-19.1%	-5.6%
Cc1cc(C)cc(C(=O)Nc2cccc(NC(=O)c3ccco3)c2)c1	-15.1%	i
Cc1nn(-c2ccccc2)c(C)c1/C=N/NC(=O)CSc1nc2ccccc2c(=O)n1-c1ccc(Br)cc1	-24.0%	-0.8%
Cc1ccc(S(=O)(=O)CCC(=O)OCC(=O)NNC(=O)c2ccc([N+](=O)[O-])cc2)cc1	-11.3%	i
CSc1cccc(NC(=O)CCc2ccccc2)c1	-6.4%	i
Cc1ccc(OCc2nnc(SCC(=O)c3cccs3)n2-c2ccccc2)cc1C	u	u
CCOc1ccc(NC(=S)N2c3ccccc3CC2C)cc1 (stereo not drawn)	-7.2%	-22.6%
CC(NCC1(N2CCOCC2)CCCCC1)C(=O)Nc1ccc(Cl)cc1Cl (stereo not drawn)	1.3%	u
CCCC(C)C(=O)NCc1ccc2c(c1)OCO2 (stereo not drawn)	-15.7%	x
O=C(O)c1ccccc1-n1c(-c2ccccc2)cc2c1CCCC2=O	-6.2%	-3.5%
Cc1ccc(C2(C)NC(=O)N(CC(=O)Nc3c(C)n(C)n(-c4ccccc4)c3=O)C2=O)cc1 (stereo not drawn)	-4.7%	i
O=C(Cc1coc2ccc3ccccc3c12)NC1CCCc2ccccc21 (stereo not drawn)	-12.1%	i
CN(C)CCCN(C(=O)c1ccc(S(=O)(=O)N2CCc3ccccc32)cc1)c1nc2ccc(F)cc2s1	-23.8%	i
CN(C(=O)c1ccc(NC(=O)Cc2cccc(NC(=O)C3CCCN(C(=O)C4CC4)C3)c2)cc1)C1CC1 (stereo not drawn)	-3.3%	i
CCS(=O)(=O)c1cc([N+](=O)[O-])c(Sc2ccccc2NC(C)=O)s1	-0.2%[7.34 µM]	i[7.34 µM]
CCOCc1nnc(NC(=O)C2CCN(C(=O)c3ccco3)CC2)s1	-5.3%	-13.1%
NC(=O)CC(NC(=O)c1cccc(Br)c1)c1ccc(N2CCN(c3ccccn3)CC2)c([N+](=O)[O-])c1 (stereo not drawn)	-20.7%	i
SMILES	VACV Venus inh	Vaccinia mCherry
Cn1c(=O)c(C(=O)NCc2ccccc2)c(O)c2ccccc21	-1.4%	-9.8%
Cc1ccc2nc(-c3ccco3)c(Cc3ccccc3)n2c1	-6.2%	-1.9%
COc1ccc(/C=C2\NC(=S)N(CC3CCCO3)C2=O)c(OC)c1C (stereo not drawn)	-11.0%	-0.8%
COc1ccccc1NS(=O)(=O)c1cc(N/C(=N/S(=O)(=O)c2ccccc2)c2ccc(F)cc2)ccc1Cl	-25.1%	-12.5%
CC1Cc2ccccc2N1CC(=O)NCc1ccc2c(c1)OCO2 (stereo not drawn)	-6.3%	-11.0%
O=[N+]([O-])c1c(NCCO)cc(N2CCC3(CC2)OCCO3)c2nonc12	-21.4%	-14.3%
CCCCN(CC)C(=O)CSc1nc2c(sc3ccccc32)c(=O)n1CCc1ccccc1	-5.6%	-3.9%
CCC1C(=O)Nc2nc(-c3ccccc3)c(-c3ccccc3)n2N=C1C (stereo not drawn)	-10.3%	x
CC(C)(C)C1=NN(c2ccc([N+](=O)[O-])cc2)C(c2ccccc2)C1 (stereo not drawn)	-9.4%	-6.5%
COc1ccc(S(=O)(=O)Nc2ccc(NC(C)=O)cc2)cc1OC	-10.5%	-14.2%
CCN(CC(=O)Nc1c(F)cccc1F)C(=O)C1CC1	-0.2%	i
CCNC(=S)Nc1cccc(S(=O)(=O)NC2=NCCC2)c1	-2.1%	-2.7%
CCOC(=O)C(Oc1ccc(=O)[nH]n1)C(C)=O (stereo not drawn)	-2.3%	-23.4%[1.46 µM]
C/C=C/Cn1c(SCc2ccccc2)nc2c1c(=O)[nH]c(=O)n2C	u	x
CN(C)c1nc(N)c([N+](=O)[O-])c(NCc2ccccc2)n1	4.4%	-13.4%
COC1=Nc2ccccc2/C=C\c2ccccc21	-7.2%	-19.0%
COc1ccccc1CN(C)CC(=O)c1c(C)[nH]c2ccccc12	-16.9%	-14.0%
N#Cc1c(N2CCN(C(=O)c3ccco3)CC2)nc(-c2ccccc2)c2c1CCCC2	u	u
CC(C)CCn1c(=O)c2ccccc2n2c(CCl)nnc12	-17.8%	-9.7%
Cc1cc(N2CCN(c3ccccc3)CC2)nc(-n2nc(C)cc2C)n1	-12.9%	-29.9%
COc1ccc(CCNC(=O)c2ccc(-c3ccc([N+](=O)[O-])cc3Cl)o2)cc1	-2.3%	-8.2%
COc1ccc(OC)c(-n2c(-c3cccc(C)c3)n[nH]c2=S)c1	-13.7%	i
COc1ccc(S(=O)(=O)NC(CC(=O)N2CCc3ccccc32)c2ccco2)cc1 (stereo not drawn)	-13.2%	i
CCN(CC)C(=O)c1ccc(C(=O)c2c(C)cc(C)cc2C)cc1	-22.1%	x
Cc1cccn2cc(CNC(=O)CC3CCCC3)nc12	-14.8%	x
SMILES	VACV Venus inh	Vaccinia mCherry
COc1ccc(NC(=O)Nc2cccs2)cc1OC	-9.2%	i
COc1ccc(C)cc1NC(=O)C1CCN(S(=O)(=O)c2cccc3cccnc23)CC1	-10.3%	-5.2%
Cn1cc(SCC(=O)N2CCCc3ccccc32)c2ccccc21	0.8%	i
COCc1c(C(=O)N/N=C/C2CC=CCC2)nnn1-c1nonc1N (stereo not drawn)	-7.1%	i
CCN(CC)C(=O)c1nc[nH]c1C(=O)N(C)Cc1ccccc1	-1.1%	-5.7%
CCOc1ccccc1-c1nnc(SCC(=O)Nc2ccccc2)o1	-19.8%	x
COc1cccc(CN2CCNC(=O)C2CC(=O)N(C)CCc2ccccn2)c1 (stereo not drawn)	-14.4%	i
CCN(C(=O)COC(=O)CCS(=O)(=O)c1ccc(C)cc1)C1CCS(=O)(=O)C1 (stereo not drawn)	-10.6%	-21.0%
CCC(c1nnnn1CCOC)N1CCN(c2cccc(C(F)(F)F)c2)CC1 (stereo not drawn)	-10.0%	x
Cc1cc2c(cc(C(=O)NCCCN3CCOCC3)n2Cc2ccc(Cl)cc2)o1	-25.0%	u
O=C(CSc1nnc(COc2ccccc2)o1)Nc1nccs1	0.0%	-4.3%
COc1cccc(CNC(=O)Cn2ncn3cccc3c2=O)c1OC	-5.6%	9.1%
C=CCOc1c(Br)cc(/C=N\n2nnnc2N)cc1OC	-15.7%	i
CN1CCN(C2CN(C3CCCCC3)S(=O)(=O)C2)CC1 (stereo not drawn)	2.9%	15.9%
[O-][n+]1onc2c1C(N1CCOCC1)CCC2N1CCOCC1 (stereo not drawn)	-33.0%	x
CCOc1ccccc1C(=O)Nc1cccc2ccccc12	-20.4%	-12.6%
COc1ccc(C(=O)N2CCC2(C)C(=O)NC(C)C)cc1 (stereo not drawn)	7.3%	4.1%
COC(=O)[C@@H]1N=C(c2ccc(OC)cc2)O[C@]12C(=O)N(C)c1cccc(Cl)c12	4.2%	30.9%[activator]
CN(C)CCNC(=O)COc1ccc(C23CC4CC(CC(C4)C2)C3)cc1	u	-9.3%
O=C(c1c(F)cccc1F)N1CCN(c2ncc(Br)cn2)CC1	-12.5%	-19.9%
CCN(c1ccccc1)S(=O)(=O)c1ccc(Cl)nc1	-16.2%	-11.7%
COc1ccc(-c2nc3ccc(Br)cn3c2Cc2ccccc2)cc1OC	-13.8%	i
CC(C)(C)OC(=O)n1cc(/C=N/NC(=O)c2ccco2)c2ccccc21	-6.8%	-11.3%
CN(Cc1nc(-c2ccccn2)no1)S(=O)(=O)c1ccc(Br)cc1	2.1%	x
COC(=O)c1ccc(CSc2nc3c(cnn3-c3ccccc3)c(=O)[nH]2)o1	-15.3%	-0.6%

Brought forward from above: five entries; new compounds follow.
SMILES	VACV Venus inh	Vaccinia mCherry
CCN(c1ccccc1)S(=O)(=O)c1ccc(Cl)nc1	-16.2%	-11.7%
COc1ccc(-c2nc3ccc(Br)cn3c2Cc2ccccc2)cc1OC	-13.8%	i
CC(C)(C)OC(=O)n1cc(/C=N/NC(=O)c2ccco2)c2ccccc21	-6.8%	-11.3%
CN(Cc1nc(-c2ccccn2)no1)S(=O)(=O)c1ccc(Br)cc1	2.1%	x
COC(=O)c1ccc(CSc2nc3c(cnn3-c3ccccc3)c(=O)[nH]2)o1	-15.3%	-0.6%
CC(=NNC(=O)c1ccncc1)c1cc(Cl)ccc1Cl	-7.4%	i
C/C(=N\NC(=O)c1ccccc1)c1ccccc1F	-9.2%	i
CCc1ccc(NC(=O)Cn2c(=O)n(-c3cc(C)cc(C)c3)c(=O)c3oc4ccccc4c32)cc1	-21.5%	-25.8%
CSc1ccc2cc(CNCc3ccccc3F)c(N3CCCC(CO)C3)nc2c1 (stereo not drawn)	-2.6%	-7.0%
CCOc1ccc(NC(=O)Cn2c(=O)n(-c3ccc(C)cc3)c(=O)c3cc(OC)c(OC)cc32)cc1	-0.6%	-16.2%
CCC(C)C(=O)Nc1nnc(SCC(=O)NC2CCCCC2)s1 (stereo not drawn)	3.7%	-6.3%
O=C(CN1CCN(S(=O)(=O)N2CCCCC2)CC1)Nc1cc(Cl)ccc1Cl	7.8%	-6.5%
Cc1cccc(-c2nc3c4c(-c5ccccc5)c(-c5ccccc5)oc4ncn3n2)c1	-6.2%	i
COCCNC(=O)C1(C)CCCN(Cc2cc(C(F)(F)F)ccc2Cl)C1 (stereo not drawn)	-4.5%	-1.6%
CCCNC(=O)C1(C)CCN(C(=O)C2(c3ccc(Cl)cc3)CCCC2)C1 (stereo not drawn)	3.9%	45.2%[activator]
